Screens from PubChem BioAssay.
Calb FLC = C. albicans growth modulation with fluconazole | C. albicans CaCi-2 (fluconazole-resistant clinical isolate) + fluconazole, Alamar Blue growth, 48 h | growth inhibition, % (concentration not given with the values) | 300,000 compounds, 0.57% hits | AID 1979;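 active = most replicates above 75%; inconclusive = exactly half above 75%; inactive = most below 75%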;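 also: all wells also contain fluconazole at 8 µg/ml as a sub-toxic cotreatment; 0% = median of DMSO wells and 100% = median of geldanamycin control wells; wells of about 8 µL received 7.5 nL stock; the first replicate is given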
Beta2AR agonist = activates human beta-2 adrenergic receptor causing internalization | 340,000 compounds, 0.43% hits | response, % (test concentration not listed) | AID 504454 | Am2.2-beta2AR cells, FAP receptor internalization, flow cytometry; reference of the scale not given here | P07550;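 active = response above a set limit, near 3 SD of response in nonfluorescent compounds, cut at about 42% in these data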;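 also: stock transfer was 100 nL into about 11 µL; a reference agonist was the positive control; negative values mostly stem from fluorescent compounds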
Target sequence (P07550 whole entry, looked up): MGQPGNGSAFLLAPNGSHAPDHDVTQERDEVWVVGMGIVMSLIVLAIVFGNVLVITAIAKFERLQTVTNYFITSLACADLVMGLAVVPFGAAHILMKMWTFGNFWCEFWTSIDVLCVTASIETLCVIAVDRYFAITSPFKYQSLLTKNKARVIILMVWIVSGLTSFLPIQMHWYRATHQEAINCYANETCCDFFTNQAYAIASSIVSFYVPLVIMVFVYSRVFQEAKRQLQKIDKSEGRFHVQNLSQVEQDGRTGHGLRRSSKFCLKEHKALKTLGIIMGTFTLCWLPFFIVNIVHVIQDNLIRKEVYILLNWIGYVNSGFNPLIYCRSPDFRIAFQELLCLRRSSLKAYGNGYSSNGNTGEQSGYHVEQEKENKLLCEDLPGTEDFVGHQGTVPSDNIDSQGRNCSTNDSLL
HNF4A DNA FP = change in binding of human HNF4 alpha to DNA | P41235 | HNF4a-FITC DNA binding, fluorescence polarization, 1 h | activity change, % at 10 µM | 360,000 compounds, 0.3% hits | AID 1224865; in the data active = activity change above about 30%, passing the limit was not always enough;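 also: controls were the assay level and a saturating level of protein; the project sought stronger binding though the title names inhibitors; some compounds called inactive have numbers as strong as hits; positive values seem to mean higher polarization but the record does not say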
Target sequence (P41235 whole entry, looked up): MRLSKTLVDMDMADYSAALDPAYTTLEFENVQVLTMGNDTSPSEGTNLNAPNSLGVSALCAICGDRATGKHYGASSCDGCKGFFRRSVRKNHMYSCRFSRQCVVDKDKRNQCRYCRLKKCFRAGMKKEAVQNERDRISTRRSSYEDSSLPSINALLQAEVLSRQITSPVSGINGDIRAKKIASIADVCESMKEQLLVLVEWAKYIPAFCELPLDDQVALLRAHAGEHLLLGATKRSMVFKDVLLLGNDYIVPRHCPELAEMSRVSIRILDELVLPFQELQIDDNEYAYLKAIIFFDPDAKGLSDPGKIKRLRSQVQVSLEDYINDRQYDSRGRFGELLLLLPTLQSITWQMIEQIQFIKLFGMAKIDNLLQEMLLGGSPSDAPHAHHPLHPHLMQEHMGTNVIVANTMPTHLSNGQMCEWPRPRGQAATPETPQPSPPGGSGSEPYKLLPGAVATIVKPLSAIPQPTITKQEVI
LANA-H2B inh = blocks KSHV LANA binding to histone H2A/H2B; Q9QR71; cell-free LANA-H2A/H2B peptide, fluorescence polarization; inhibition, % (no concentration beside the values); 320,000 compounds, 0.6% hits; AID 2629; in the data active = inhibition mostly above about 10%, no sharp cut-off; inactive = mostly below about 6.7%;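 also: stock transfer was 7.5 nL into about 10 µL; 0% = median of vehicle wells and 100% = median of positive control wells; one replicate is shown; the record names a cut of 25% in any replicate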
ALR inh = inhibitors of human sulfhydryl oxidase ALR; purified ALR, DTT oxidation, H2O2 HRP-luminol luminescence; inhibition, % (concentration not given with the values); 290,000 compounds, 3.8% hits;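 active = mean and each replicate at 75% or more; inconclusive = only one of the two met; inactive = neither met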;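 also: stock transfer was 7.5 nL into about 7.5 µL; 0% = neutral wells and 100% = wells with inactivated enzyme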
Target sequence (P55789 whole entry, looked up): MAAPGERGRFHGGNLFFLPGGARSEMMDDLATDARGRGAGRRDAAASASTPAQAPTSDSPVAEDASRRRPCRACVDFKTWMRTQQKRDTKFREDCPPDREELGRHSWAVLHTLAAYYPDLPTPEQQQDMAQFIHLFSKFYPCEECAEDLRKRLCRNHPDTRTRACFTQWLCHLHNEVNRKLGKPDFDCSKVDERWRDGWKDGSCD
Vif TR-FRET = HIV-1 Vif–A3G interaction blockers – biochemical, TR-FRET, GST-Vif 1-94, biotin-A3G peptide, dose response retest, primary screen (AID 1117319) | inhibition, %; hits with a dose series show IC50 in µM | TR-FRET GST-Vif / biotin-A3G peptide binding; higher % means a stronger effect; test concentration not given here; strong numbers were not always called active | 260,000 compounds, 0.57% hits;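 active = above the screen mean plus three standard deviations and confirmed in dose response; inconclusive = results disagree or hit not tested in dose response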;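 also: Vif residues 1-94 fused to GST binding biotinylated APOBEC3G peptide 110-148; 0% = full assay without inhibitor and 100% = GST in place of GST-Vif; retest series ran down from 100 µM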
RanGTP-Imp inh = inhibitors of RanGTP-importin-beta interaction, primary screen, biochemical, FRET, CFP-Ran, YFP-importin-beta, homogeneous; cell-free CFP-Ran/YFP-importin-beta FRET ratio; 300,000 compounds, 1.1% hits; inhibition, % (concentration not given with the values); AID 2216;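 active = most replicates above 15%; inconclusive = exactly half above 15%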;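 also: 0% = DMSO wells and 100% = Ran loaded with GDP instead of GTP; wells of about 40 µL received 100 nL stock; the first replicate is given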
The depositor's hits bear a star; ? = inconclusive; · = not tested or not shown.

SMILES	Calb FLC	Beta2AR agonist	HNF4A DNA FP	LANA-H2B inh	ALR inh	Vif TR-FRET	RanGTP-Imp inh
COC(=O)C1=C(N)OC2=C(C(=O)CC(C)(C)C2)C1c1cc2c(cc1Cl)OCO2 (configuration not stated)	-17	-7	-2.2	-7.5	0	·	1.9
Cc1ccc(C2=NN(C(=O)C3CCCO3)C(c3ccco3)C2)cc1 (configuration not stated)	23	-4	0.1	2.0	51	·	-4.2
Brc1ccc(C2=CC(c3ccco3)n3ncnc3N2)cc1 (configuration not stated)	21	-3	-111	35*	·	?	-159
CCOC(=O)N1CCN(C(=O)C2CCCCC2)CC1	-9	-24	3.6	0.9	4	-1%	1.9
NC(=O)C1(N2CCCCC2)CCN(C(=S)NCCc2ccccc2)CC1	-2	-4	-0.6	-3.5	-11	2%	3.9
O=C(CN1CCCCCC1)Nc1cc(C(F)(F)F)ccc1Cl	-34	-1	2.8	-1.6	-11	-6%	4.9
CCCOc1ccc(CCCN=C(N)N)cc1Cl	1	-5	-1.3	-4.9	2	·	9.0
CCOC(=O)C1(Cc2ccccc2C(F)(F)F)CCN(C2CCN(C(C)=O)CC2)CC1	31	6	-1.5	1.0	-1	-16%	-1.7
Cc1cc(NC(=O)CSc2nnc(-c3ccncc3)n2Cc2ccccc2)n(-c2ccccc2)n1	0	-1	1.0	-0.8	-18	9%	1.3
CSc1nsc(NC(=O)CCNC(=O)c2ccc([N+](=O)[O-])cc2)n1	-3	7	5.0	1.0	-5	·	-0.4
COc1ccc(C(=O)COC(=O)c2n[nH]c3ccccc23)c(OC)c1	·	-11	-0.6	·	·	5%	·
CN(c1ccc(OC(=O)CC2OC(=O)c3ccccc32)cc1)S(=O)(=O)c1ccccc1 (configuration not stated)	·	10	-4.5	-4.1	8	6%	·
CCCCn1c(N)c(N(Cc2ccccc2OC)C(=O)c2c(CC)noc2C)c(=O)[nH]c1=O	0	0	-2.7	-3.1	6	-4%	0.0
CCOc1ccc(N2CC(O)(c3ccc(F)cc3)[N+]3=C2CCCC3)cc1 (configuration not stated)	-15	1	-2.0	2.4	-3	2%	-0.4
Cc1ccnc(NC(=O)c2ccc(C(=O)c3ccccc3)cc2)c1	20	-16	1.9	1.7	4	-4%	-7.2
CC(=O)N1CCc2cc(S(=O)(=O)N3c4ccccc4CC3C)ccc21 (configuration not stated)	-6	6	1.6	1.3	-10	-2%	?
O=C1NC(c2cccs2)Nc2sc3c(c21)CCCC3 (configuration not stated)	-2	-2	0.8	8.3	·	4%	-0.2
O=C(/C=C/c1ccc(F)cc1)NC(=S)NC1CCCCC1	-11	20	-0.8	6.1	8	0%	-0.3
Cc1cc(C)n2nc(C(=O)NC(C)(C)C)nc2n1	2	20	0.8	5.2	-3	-6%	-2.7
COc1ccccc1-c1nnc2n1N=C(C)CS2	1	-7	-0.1	2.0	-5	24%	2.2
N#CC1(NC(=O)CSc2ccccn2)CCCCC1	-3	-2	0.3	-2.4	-11	2%	6.8
CCN1CCN(CCNC(=O)c2ccc3c(c2)N(Cc2cccc(Cl)c2)C(=O)c2ccccc2S3=O)CC1 (configuration not stated)	0	14	-0.7	12	-20	·	-2.3
COP1(=O)C=C[C@H](N(Cc2ccccc2)S(=O)(=O)c2ccccc2[N+](=O)[O-])[C@@H](C)O1 (some centres not stated)	15	1	-2.0	14	-2	·	-0.9
Cc1nc2ccc(NC(=O)c3ccc(F)c(S(=O)(=O)N4CCOCC4)c3)cc2s1	-7	-2	-1.5	-2.6	-17	-1%	4.1
CC(C)C[C@@H](CN(C)N=O)N(C[C@H](Cc1ccccc1)N(CCc1ccccc1)N=O)N=O	-1	12	6.2	-0.1	-10	3%	-1.6
N#CC1(NC(=O)CSc2n[nH]c(-c3ccccc3)n2)CCCCC1	2	1	0.4	-3.7	-4	-3%	7.5
COc1cccc(CN2CCN(S(=O)(=O)c3ccccc3)CC2)c1OC	-4	3	-1.8	-3.3	-19	·	2.0
COc1ccc(-c2csc(Nc3ccccc3)[n+]2CC(O)c2ccc([N+](=O)[O-])cc2)cc1 (configuration not stated)	7	0	-3.3	-2.5	5	?	-0.8
C/C(=N\NC(=O)COc1cc(C)cc(C)c1)c1cccc(NC(=O)C2CCC2)c1	1	-6	0.3	0.5	0	-8%	-0.7
CCOc1ccccc1N1Cc2cc(C)c(C)cc2C1	-1	8	5.3	7.1	2	22%	-1.9
COc1cccc(C(=O)OCC(=O)Nc2cc(C)on2)c1OC	·	2	0.0	6.3	5	6%	·
Cn1cccc1CNC1CCCC1	-5	-1	-1.4	-1.0	32	3%	0.7
COc1ccc(NC(=O)Nc2ccc3c(c2)N(C)C(=O)CS3)cc1Cl	2	24	1.0	3.7	-26	4%	-5.3
CC(C)CN(C(=O)CCNC(=O)c1ccc(Cl)cc1)c1c(N)n(CC(C)C)c(=O)[nH]c1=O	·	0	-0.3	-6.5	2	3%	·
Cn1cc(/C=C2\SC(=O)N(c3ccc(O)cc3)C2=O)c2ccccc21	9	-1	-0.8	0.9	2	-10%	6.5
O=C1c2ccccc2C(=O)c2c(NCc3cccnc3)cccc21	?	39	5.1	-3.5	-13	0%	-2.5
Cn1c(SCC(=O)NC2CCCC2)nnc1-c1ccccn1	4	3	0.5	-0.6	4	-14%	5.1
COc1ccc(OCCC(=O)OCC(=O)Nc2cccc(S(=O)(=O)N3CCCCC3)c2)cc1	·	-1	1.6	-2.2	·	-2%	·
CC1(C)CC2CC(C)(CN2C(=O)c2cc(-c3ccc(F)cc3)on2)C1 (configuration not stated)	15	9	-0.9	-4.7	-1	·	0.9
CC1(C)Cc2cccc(OCC(=O)NCCOc3ccccc3)c2O1	-2	4	-1.8	-10	0	15%	0.5
COc1ccc(O/C(=N\S(=O)(=O)c2ccccc2)c2ccccc2)cc1	-4	10	-2.3	1.8	3	1%	3.4
O=C1c2cccc3cccc(c23)C(=O)N1CCN1CCN(C(=S)Nc2ccc(F)cc2)CC1	5	·	·	-3.0	8	-9%	4.8
Cc1ccc(CCC2C3=C(CCCC3=O)OC3=C2C(=O)CCC3)cc1	-6	-1	0.7	-7.2	·	27%	5.7
Cc1cc(C)c(NC(=O)Cn2nnc(C(=O)NCCc3ccccc3)c2N)c(C)c1	-3	-1	-0.7	3.8	0	·	-0.3
CCn1nc(C(=O)NNS(=O)(=O)c2ccc(C)cc2)c2ccccc2c1=O	·	2	2.6	1.1	55	-6%	·
C/C(=N/Nc1nc(-c2ccc(Cl)cc2)cs1)c1cccs1	-16	-3	1.1	-4.4	43	-4%	-2.9
COc1ccc(C(=O)COC(=O)Cn2cnc3ccccc3c2=O)c(OC)c1	-2	-4	0.9	7.3	2	-4%	1.3
CCOC(=O)/C(=C/c1ccccc1)NC(=O)c1ccco1	0	2	-0.8	4.2	·	·	-1.1

Rewritten in markdown: part of the list above
| SMILES | Calb FLC | Beta2AR agonist | HNF4A DNA FP | LANA-H2B inh | ALR inh | Vif TR-FRET | RanGTP-Imp inh |
| --- | --- | --- | --- | --- | --- | --- | --- |
| CCOc1ccccc1N1Cc2cc(C)c(C)cc2C1 | -1 | 8 | 5.3 | 7.1 | 2 | 22% | -1.9 |
| COc1cccc(C(=O)OCC(=O)Nc2cc(C)on2)c1OC | · | 2 | 0.0 | 6.3 | 5 | 6% | · |
| Cn1cccc1CNC1CCCC1 | -5 | -1 | -1.4 | -1.0 | 32 | 3% | 0.7 |
| COc1ccc(NC(=O)Nc2ccc3c(c2)N(C)C(=O)CS3)cc1Cl | 2 | 24 | 1.0 | 3.7 | -26 | 4% | -5.3 |
| CC(C)CN(C(=O)CCNC(=O)c1ccc(Cl)cc1)c1c(N)n(CC(C)C)c(=O)[nH]c1=O | · | 0 | -0.3 | -6.5 | 2 | 3% | · |
| Cn1cc(/C=C2\SC(=O)N(c3ccc(O)cc3)C2=O)c2ccccc21 | 9 | -1 | -0.8 | 0.9 | 2 | -10% | 6.5 |
| O=C1c2ccccc2C(=O)c2c(NCc3cccnc3)cccc21 | ? | 39 | 5.1 | -3.5 | -13 | 0% | -2.5 |
| Cn1c(SCC(=O)NC2CCCC2)nnc1-c1ccccn1 | 4 | 3 | 0.5 | -0.6 | 4 | -14% | 5.1 |
| COc1ccc(OCCC(=O)OCC(=O)Nc2cccc(S(=O)(=O)N3CCCCC3)c2)cc1 | · | -1 | 1.6 | -2.2 | · | -2% | · |
| CC1(C)CC2CC(C)(CN2C(=O)c2cc(-c3ccc(F)cc3)on2)C1 (configuration not stated) | 15 | 9 | -0.9 | -4.7 | -1 | · | 0.9 |
| CC1(C)Cc2cccc(OCC(=O)NCCOc3ccccc3)c2O1 | -2 | 4 | -1.8 | -10 | 0 | 15% | 0.5 |
| COc1ccc(O/C(=N\S(=O)(=O)c2ccccc2)c2ccccc2)cc1 | -4 | 10 | -2.3 | 1.8 | 3 | 1% | 3.4 |
| O=C1c2cccc3cccc(c23)C(=O)N1CCN1CCN(C(=S)Nc2ccc(F)cc2)CC1 | 5 | · | · | -3.0 | 8 | -9% | 4.8 |
| Cc1ccc(CCC2C3=C(CCCC3=O)OC3=C2C(=O)CCC3)cc1 | -6 | -1 | 0.7 | -7.2 | · | 27% | 5.7 |
| Cc1cc(C)c(NC(=O)Cn2nnc(C(=O)NCCc3ccccc3)c2N)c(C)c1 | -3 | -1 | -0.7 | 3.8 | 0 | · | -0.3 |
| CCn1nc(C(=O)NNS(=O)(=O)c2ccc(C)cc2)c2ccccc2c1=O | · | 2 | 2.6 | 1.1 | 55 | -6% | · |

New compounds follow:
SMILES	Calb FLC	Beta2AR agonist	HNF4A DNA FP	LANA-H2B inh	ALR inh	Vif TR-FRET	RanGTP-Imp inh
C=CCn1c(SCC(=O)Nc2cccc(S(N)(=O)=O)c2)nnc1C1CCCCC1	·	-3	6.5	·	·	3%	·
O=C(COc1ccc(Cl)cc1)OCC(=O)c1ccc[nH]1	·	5	0.6	-1.7	-7	3%	·
COCCc1nnc(NC(=O)C(C)C)s1	-4	4	3.8	0.0	-1	7%	-1.2
Brc1ccc(N/N=C(/N=Nc2nn[nH]n2)c2ccccc2)cc1	124*	5	1.3	1.7	7	3%	-0.5
COc1cccc(NC(=O)C(=O)NCCC2CCCCN2S(=O)(=O)c2ccccc2)c1 (configuration not stated)	11	-3	-0.9	3.1	-3	1%	0.9
COc1ccc(N(CC(=O)N2CCCCCC2)S(C)(=O)=O)cc1Cl	-8	-2	-2.9	-2.5	6	·	4.0
N#C/C(=C1/CCCCCN1)c1nc2ccccc2s1	-11	6	8.3	4.7	·	-14%	1.1
CSc1nnc2c(n1)OC(c1cccn1C)N(C(C)=O)c1ccccc1-2 (configuration not stated)	3	2	0.2	1.2	4	-6%	-1.9
N/C(Cc1ccc([N+](=O)[O-])cc1)=N\OC(=O)COc1ccc2ccccc2c1	-4	6	15	1.1	-18	2%	0.4
O=C(CCc1ccccc1)Nc1nnc(-c2cccs2)o1	4	2	-0.2	-3.4	1	28%	-1.2
O=C(NNc1nc2c(F)cc(F)cc2s1)C1=COCCO1	-4	-7	1.0	2.4	98*	3%	-1.8
O=C1C2C(C(=O)N1c1ccncc1)C1C=CC2C12CC2 (configuration not stated)	-11	4	-0.2	4.0	0	-6%	0.6
Cc1cc(=O)n2[nH]c(SCc3ccccc3Cl)nc2n1	6	-5	2.6	1.4	0	-2%	-3.7
COc1ccc(NC(=O)c2cccnc2N2CCCCC2)cc1	-2	-13	-0.5	1.3	-11	23%	-1.9
CCn1cc(/C=C(\NC(=O)c2ccccc2Cl)C(=O)NCCN2CCOCC2)c2ccccc21	-10	13	-3.0	-4.2	11	·	-0.2
O=C(CN(C(=O)CNC(=O)c1ccco1)c1ccc2c(c1)OCO2)NC1CCCCC1	10	7	-5.6	-2.8	2	1%	5.2

Random draw from the library (roughly 6.3% active in at least one column).
